# Source: PubChem (National Center for Advancing Translational Sciences (NCATS))
# hNpr1 antagonist: human Npr1 receptor antagonism | HEK293 hNpr1 GloSensor cGMP, ANP-stimulated luminescence | Potency, µM (highest dose often 46.3 µM), for the others: top-dose activity change, negative = inhibition, hits mostly inhibitors | 1.6% of 76,000 active | AID 1347048; active = well fitted inhibition curve with a large enough effect; inconclusive = small, poorly fitted or top-dose-only effect; inactive = no such curve, though single readings can be large or run the other way;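 note: nearly all actives have a fitted effect of over 60% in size; nearly all hits also lower the signal before the agonist is added; a reference antagonist and vehicle were the controls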
# Target sequence (P16066 whole entry, looked up): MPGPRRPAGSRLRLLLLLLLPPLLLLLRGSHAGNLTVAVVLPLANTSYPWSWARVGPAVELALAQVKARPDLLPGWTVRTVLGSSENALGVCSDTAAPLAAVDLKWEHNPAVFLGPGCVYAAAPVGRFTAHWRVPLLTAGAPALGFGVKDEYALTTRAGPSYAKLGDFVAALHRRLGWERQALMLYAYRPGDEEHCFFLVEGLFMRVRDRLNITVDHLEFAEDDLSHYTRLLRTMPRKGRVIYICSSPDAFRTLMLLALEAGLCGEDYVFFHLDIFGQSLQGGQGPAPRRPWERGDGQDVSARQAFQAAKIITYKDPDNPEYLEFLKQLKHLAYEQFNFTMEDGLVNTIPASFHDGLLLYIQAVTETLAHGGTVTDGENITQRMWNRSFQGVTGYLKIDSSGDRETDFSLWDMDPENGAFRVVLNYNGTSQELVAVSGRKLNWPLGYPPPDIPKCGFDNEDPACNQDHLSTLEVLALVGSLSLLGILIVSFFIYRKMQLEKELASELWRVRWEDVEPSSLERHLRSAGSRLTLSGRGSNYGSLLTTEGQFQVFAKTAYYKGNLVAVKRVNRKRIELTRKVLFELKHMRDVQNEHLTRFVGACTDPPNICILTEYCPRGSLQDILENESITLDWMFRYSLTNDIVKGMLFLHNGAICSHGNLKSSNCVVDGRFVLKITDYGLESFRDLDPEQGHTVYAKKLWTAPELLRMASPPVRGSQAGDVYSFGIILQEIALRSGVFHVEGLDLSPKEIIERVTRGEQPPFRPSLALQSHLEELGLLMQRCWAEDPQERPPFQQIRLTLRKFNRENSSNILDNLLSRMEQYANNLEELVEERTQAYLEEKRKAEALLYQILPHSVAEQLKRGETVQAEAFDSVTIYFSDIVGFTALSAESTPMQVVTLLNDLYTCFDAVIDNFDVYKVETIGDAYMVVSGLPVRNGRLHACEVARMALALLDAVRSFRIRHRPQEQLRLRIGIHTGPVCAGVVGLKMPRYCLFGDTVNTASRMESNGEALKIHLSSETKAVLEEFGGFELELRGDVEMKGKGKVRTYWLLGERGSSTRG
#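 Compound pre-incubated 30 min at room temperature on GloSensor-loaded HEK293 cells stably carrying hNpr1 and the pGS-40F cGMP biosensor. Stimulation uses hNppA at 0.1 nM final; luminescence is taken at baseline and 20 min post-agonist.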
# An asterisk follows results filed as active; ? = inconclusive; [ ] = dose if it differs, or a comment. % is set by controls: 0 for no effect and ±100 for the full control effect; potency is the fitted concentration of half-maximal effect. An excerpt; rates above refer to the full screens.
SMILES,hNpr1 antagonist
CC(Cc1cnccn1)NC(=O)c1ccc2nc(-c3ccc(F)cc3)cn2c1 (stereo unspecified),6%
OC[C@@H]1CN(Cc2ccccc2F)C[C@H]1c1nc(-c2ccncc2)no1,-25%
O=S(=O)(N1CCCC1)N1CCOC(Cc2cccc(C(F)(F)F)c2)C1 (stereo unspecified),0%
COc1ccc2cc(C(=O)N3CCc4nn(C)c(=O)n4CC3)[nH]c2c1,-5%
COCCn1cc(CN2CCN(c3ccccc3F)CC2)ccc1=O,4%
CCCN(CC1CCOC1)S(=O)(=O)c1ccc(C)c(Cl)c1 (stereo unspecified),1%
O=C(CCC1CCN(S(=O)(=O)c2ccc(F)cc2)CC1)NCc1nc2ccccc2[nH]1,11µM*
CCn1c(=O)c2c(cc(C)n2C)n(CC(=O)Nc2ccccc2C)c1=O,5%
CC[C@H]1CN(C(=O)Nc2cccc(OC)c2)CC[C@H]1CC(=O)NCc1cccnc1,1%[70.6 µM]
O=C(NC1CC1)C1CC(=O)N(c2n[nH]c3cccc(F)c23)C1 (stereo unspecified),6%
Fc1ccc(/C=C/CN2CCC(n3cc(C4CCCC4)nn3)CC2)cc1,?
CC(C)NC(=O)N1CCN(C(=O)NC2CCCCC2)[C@@H](C(=O)N[C@H](Cc2c[nH]c3ccccc23)C(N)=O)C1,-1%
Cc1cccc(CC(=O)N2CCC3(CCCCO3)CC2)c1,-1%
O=C(CCC1CCN(C(=O)c2ccoc2)CC1)N1CCC(Cc2ccccc2)CC1,-22%
Cc1ccc2nc(C3CCCN(Cc4ccc(-c5cncnc5)cc4)C3)[nH]c(=O)c2c1 (stereo unspecified),2%
CC(C)(C)OC(=O)NCCCC(=O)NCc1c[nH]c2ncccc12,3%
CCOCCOC1CCN(C(=O)c2cnccn2)CC1,-2%
COCc1noc([C@@H]2CC(F)(F)CN2C(=O)c2cc(C)[nH]n2)n1,-3%
COc1ccc(-c2noc([C@@H]3CCCN3C3CCCCC3)n2)cn1,-3%[70.6 µM]
Cc1noc(-c2cn(C3CCN(C(=O)c4cccc(Cl)c4)C3)nn2)n1 (stereo unspecified),-5%
Cn1nccc1C(=O)NCCC1CCN(C(=O)Nc2ccc(F)cc2)CC1,1%
CN1CCN(CC2(Cn3ccnc3-c3ccc(C(=O)O)cc3)CC2)CC1,2%
Cn1nccc1C(=O)N1CCC(Oc2cccc(F)c2)C1 (stereo unspecified),3%
CN(CC1CCCCO1)C(=O)c1coc(COc2ccc3c(c2)OCO3)n1 (stereo unspecified),5%
Cc1cc2nc3n(c(=O)c2n1CC(=O)NC(C)c1ccccc1)CCCCC3 (stereo unspecified),-12%
CN1CCN(c2nc3c(c(=O)[nH]2)CCN(Cc2cccc(F)c2F)CC3)CC1,-2%
COCC(=O)NC[C@H]1COCc2nc3cc(S(C)(=O)=O)ccc3n21,-3%[70.6 µM]
O=C(c1cccc(Cl)c1)N1CCN(C(=O)c2nnn3c2COC(c2ccc(F)cc2)C3)CC1 (stereo unspecified),13µM*
O=C(c1n[nH]c(=O)c2ccccc12)N1CCCC1c1nc(CCOCC2CC2)no1 (stereo unspecified),7%
CCN1C(=O)C2CC3(CCN(C(=O)Cc4ccccc4)CC3)CN2C1=O (stereo unspecified),-1%
Cc1nn2c(c1-c1ccccc1-c1ccccc1)N(Cc1ccc(O)cc1)CCC2,3.5µM*
Cc1ccccc1NS(=O)(=O)C1CCS(=O)(=O)C1 (stereo unspecified),-1%
O=C(O)CCC1CCN(S(=O)(=O)c2cccc(F)c2)CC1,5%
CC1=C[C@@H](CN(C)CCO)[C@H](C(C)C)C[C@H]1Cc1nnc(C)o1,4%[70.6 µM]
COc1cc(F)cc(-c2ccc(COc3ccc4c(cnn4CCC(=O)O)c3)cc2)c1,0%[70.6 µM]
Cc1nn(-c2ccccc2Cl)c(=O)n1CC(=O)NCCc1ccccn1,-3%
Cc1nc(-c2ccccc2OC2CN(C(=O)c3cc(F)ccc3F)C2)no1,1%
CC(=O)c1ccc(NC(=O)c2cc3n(n2)CC(c2ccc(Br)cc2)OC3)cc1 (stereo unspecified),?
CCCCCC(=O)N1CC[C@@H](CC(=O)NC2CC2)[C@@H](CC)C1,9%[70.6 µM]
O=C(Nc1ccccc1)c1cnc(-c2ccc(F)cc2)nc1-c1ccncc1,-22%
CN1C(=O)[C@H]2CN(Cc3cn[nH]c3-c3cccs3)C[C@H]2C1=O,4%
C[C@H]1[C@@H]2[C@@H](O)C([C@H](C)C(=O)N(C)CCC#N)CC[C@@]2(C)CC[C@@H]1NC(=O)c1ccncc1 (stereo partly specified),8%[70.6 µM]
COC1CCOC2(CCN(C(=O)Cc3ccccc3)CC2)C1 (stereo unspecified),-3%
COc1ccc(-c2cc(N3CCCN(C(=O)Cc4ccc(OC)c(Cl)c4)CC3)n[nH]2)cc1,-4%
FC(F)(F)c1ccc(N2C3CCC2CN(Cc2ccc(Cl)cc2)C3)cc1,23%
Cc1ccc(N2CCC(NC(=O)c3ccccc3F)C2=O)cc1 (stereo unspecified),3%
CN(C)CCNC(=O)c1nc(-c2cccc(N3CCOCC3)c2)cc2c1ccn2C,3%[70.6 µM]
O=C(O)[C@]12CCCN[C@@H]1CCN(Cc1ccccc1OCCn1ccnc1)C2,1%
CC(C)N1C(=O)C2(CCCCC2)C1C(=O)N1CCN(c2ccccc2F)CC1 (stereo unspecified),0%
COc1ccc2c(c1)CCN=C2C[C@H]1CN(C(=O)C2CC2)CC[C@H]1CC(=O)O,2%[70.6 µM]
CNC(=O)[C@@H]1CN(C(=O)c2cc3ccccc3[nH]2)C[C@H]1COC,0%
CC(C)[C@]1(O)CN(C(=O)Cc2ccc(F)cc2F)C[C@H]1C,2%
CC(=O)N1CCC(N2CC(Oc3cccc(C(=O)NCC4CC4)c3)C2)CC1,1%
Cc1cc(-c2ccc(F)c(C(N)=O)c2)cc(C(C)(C)C)c1,11%
COc1ccc(C(=O)N2CCCC(c3nc(-c4ccccc4)no3)CCNC(=O)CC2)cc1F (stereo unspecified),3%
COCc1nnc2n1CCC(NC(=O)c1sc(C)nc1C)CC2 (stereo unspecified),-2%
CNC(=O)C1(N2CCC[C@H]2C(=O)NCCN(C)C)CCCCC1,-28%[70.6 µM]
O=C(NC1CCCC1)c1noc(-c2ccc[nH]c2=O)n1,4%
COc1ccc(-c2noc([C@@H]3CCCN3C(=O)c3ccccc3Cl)n2)cc1,0%
CC(C)Cc1cn(CC2CCCN(C(=O)NC3CCCCCC3)C2)nn1 (stereo unspecified),10µM*
# The list continues:
SMILES,hNpr1 antagonist
CC[C@H]1CN(C(=O)C(C)(C)C)CC[C@H]1CC(=O)N(C)CC#N,0%[70.6 µM]
Cc1ccc(NC(=O)CC2CCCN(c3cnn(CC4CC4)c(=O)c3)C2)c(C)c1 (stereo unspecified),6%
COc1ccc(C(=O)N2CCC(n3cc(-c4nc(-c5ccccc5)no4)nn3)C2)cc1 (stereo unspecified),?
COCCNC(=O)[C@@H]1C[C@@H](O)CN1C1CCN(C(=O)c2cccs2)CC1,3%
O=C(CC[C@@H]1CNC(=O)[C@@H]2C[C@H](NC(=O)Nc3cccc(Cl)c3)CN12)NCc1ccccc1,7%
COc1ccc(CN2CCC3(COc4ccccc4C(=O)N3)C2)cc1 (stereo unspecified),-12%
CCC1=C(C(=O)OC)C(c2ccccc2F)N2C(CC(=O)NC3CC3)=CSC2=N1 (stereo unspecified),-25%
COCCNC(=O)[C@@H]1C[C@H](Oc2cccnc2)CN1C(=O)c1ccc(OC)nc1OC,-6%
CCOCc1nc(C2CCCN(C(=O)c3ccccn3)C2)no1 (stereo unspecified),22%
OCC1CCCN(c2cc(-c3ccccc3F)nc3ccnn23)C1 (stereo unspecified),1%
CCn1cc(S(=O)(=O)N2CCCC(Cc3noc(-c4cnccn4)n3)C2)cn1 (stereo unspecified),6%
CSCC[C@@H]1NC(=O)c2cc(NC(=O)c3ccc4ccn(C)c4c3)ccc2NC1=O,-15%
O=C(c1ccco1)N1CCC2(CC1)NCCc1c2[nH]c2ccccc12,6%
Cc1nc2c(c(NC3CC3)n1)CCN(C(=O)CCc1cccnc1)CC2,0%
CCN1CCN(C(=O)c2ccc(-c3nnc4ccc(NC(=O)C5CCC5)cn34)cc2)CC1,3%
CN1C(=O)c2cccn2CC1C(=O)NC1CCCCCC1 (stereo unspecified),2%
NC(=O)Cc1c[nH]c2ncc(-c3ccccc3C(F)(F)F)cc12,?
O=C(c1ccn[nH]1)N1CCC(c2nc(CCOCC3CC3)no2)C1 (stereo unspecified),-2%
CCc1ccccc1NC(=O)N1CC(C(=O)N(C)C)C2(CCOCC2)C1 (stereo unspecified),5%
Cn1nccc1C(O)c1cc2n(n1)CCN(CC(=O)NCc1ccco1)C2 (stereo unspecified),5%
COc1ccc(CN2C(=O)O[C@@H]3CN(c4nc(C)cc(C)n4)C[C@@H]32)cc1OC,0%
O=C1CN(Cc2ccc(-c3ccsc3)cc2)CCN1c1cc(Cl)ncn1,?
Cc1ccc(CN2CCN(Cc3ccc(=O)n(C)c3)CC2)cc1,-1%
O=C1Nc2ccc(-c3ccccc3)cc2C(=O)N2C[C@H](O)C[C@@H]12,0%[70.6 µM]
CC(C)Oc1ccc2c(NC(=O)c3ncc(F)cc3F)nn(CC(F)(F)F)c2c1,6%
O=C1[C@H]2CN(Cc3ccc(F)cc3F)C[C@H]2C(=O)N1Cc1ccc2c(c1)OCO2,-14%
O=C(CCc1nnn2c1CN(C(=O)c1ccc(F)cc1)CC2)NC1CC1,-1%
O=C(Nc1cccc(C(F)(F)F)c1)N[C@H]1[C@H](O)[C@@H](N2CCN(c3ccccc3)CC2)[C@@H]2OC[C@H]1O2,1%
CCC1(N2CCN(C(=O)NCc3cccc(F)c3)CC2)CCN(C(=O)C(C)C)C1 (stereo unspecified),1%
Clc1ccc(-c2cnc([C@@H]3COCCN3Cc3ccccc3)[nH]2)cc1,?
COc1ccc(OC)c(NC(=O)Cn2c(N3CCCCC3)nc(C)c(C)c2=O)c1,-1%
CC(C(=O)N1CCCN(S(=O)(=O)c2ccccc2)CCC(=O)NCC1)c1ccccc1 (stereo unspecified),-16%
Cc1noc(C)c1CCC(=O)N[C@@H]1CCOC[C@H]1Oc1ccccn1,6%
CC1(c2ccccc2)N(Cc2ccccc2F)C(=O)OC12CCN(Cc1cccc(O)c1)CC2 (stereo unspecified),-15%
COc1ccc(-c2noc(-c3nc(C)no3)n2)cc1F,-1%
CCC(NC(=O)c1cc(OC)ccc1OC1CCN(C(C)=O)CC1)c1ccc(F)cc1 (stereo unspecified),-1%
COc1ccccc1-c1cnc2n[nH]c(-c3ccc4c(c3)OCO4)c2n1,?
O=C1[C@H]2CN(Cc3cccs3)C[C@H]2C(=O)N1Cc1ccc2c(c1)OCO2,2%
Cc1cc(CN(C)c2ccc(-c3nc(-c4ccccc4F)no3)cn2)on1,?
O=C(c1ccccc1-n1cccn1)N1CCN(Cc2ccccc2CO)CC1,3%
Cc1ccc(-c2nccn3cc(C(=O)NCc4nc5ccccc5n4C)nc23)cc1,-22%
CN1c2cc(C(=O)Nc3cccc(Br)c3)ccc2C(=O)N2CCCCC21 (stereo unspecified),0%
CC(C)C(=O)N1CCC2(CC1)OCC(C(=O)NCc1ccc3c(c1)OCO3)N2C(=O)c1ccccc1 (stereo unspecified),8%
O=C(NC1CCCCC1)C1CCCN(c2cnn(Cc3ccccc3)c(=O)c2)C1 (stereo unspecified),7%
O=C(Nc1cccs1)N1CCNc2cnc(Nc3cccc(F)c3)nc2C1,-13%[70.6 µM]
O=C(NCC1CC1)C1c2ccccc2CC(=O)N1Cc1ccccc1 (stereo unspecified),-15%
O=C(c1ccncc1)N1CCC(c2noc(COc3ccc(F)cc3)n2)CC1,?
COC(=O)C1=CN(CC(=O)N2CCN(c3ccc(F)cc3)CC2)S(=O)(=O)N=C1C,-2%
CCCC(NC(C)=O)C(=O)Nc1cccc(NC(=O)Cc2ccccc2)c1 (stereo unspecified),-2%
CCc1nc(C)c(C(=O)N2C[C@H]3CC[C@@H]2CN(C(=O)c2ccccc2)C3)s1,-8%
COc1ccc(S(=O)(=O)N2C[C@@H]3C[C@H](C2)c2ccc(NC(=O)c4cnccn4)c(=O)n2C3)cc1,0%
Cc1cnc(C(=O)N[C@@H]2CCC[C@@H]2C(=O)N2CCN(c3cccc(C)c3C)CC2)cn1,1%
